Screening results (PubChem)
Arbovirus inh: blocks arbovirus infection; arbovirus infection cell-based antiviral screen; inhibition, % at 10 µM; 0.37% of 200,000 active;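 active = inhibition from about 30%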;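 also: bluetongue infection of BSR cells; cell survival read as ATP light after 72 h; 0% = infected wells without compound and 100% = uninfected wells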
Mtb bLac sens: beta-lactam sensitization of Mtb H37Rv | 0.27% of 330,000 active | M. tuberculosis H37Rv growth with meropenem, percent inhibition; hits of this screen are not shown here | AID 434955 | inhibition, % at 25 µM;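 active = about 74% or more and at least 40 points above the plate without the antibiotic, then above 30% in a dose series; inconclusive = first-round hits that could not be retested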;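 also: growth measured after seven days incubation then overnight dye step; 0% = bacteria only wells and 100% = bacteria with antibiotic; twin plates without the antibiotic show which effects depend on it; some results filed as inactive read as strong as hits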
RecA splice inh: inhibitors of M. tuberculosis RecA intein splicing | P9WHJ3 | cell-free RecA intein splicing, fluorescence | inhibition, %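 (about 9 µM by stock and volumes)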 | 0.75% of 290,000 active | AID 2221; in the data active = inhibition above about 30%; inconclusive = no clear call, values can overlap the other calls;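 also: 0% = vehicle wells and 100% = reference inhibitor control wells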
Target sequence (P9WHJ3 whole entry, looked up, canonical isoform): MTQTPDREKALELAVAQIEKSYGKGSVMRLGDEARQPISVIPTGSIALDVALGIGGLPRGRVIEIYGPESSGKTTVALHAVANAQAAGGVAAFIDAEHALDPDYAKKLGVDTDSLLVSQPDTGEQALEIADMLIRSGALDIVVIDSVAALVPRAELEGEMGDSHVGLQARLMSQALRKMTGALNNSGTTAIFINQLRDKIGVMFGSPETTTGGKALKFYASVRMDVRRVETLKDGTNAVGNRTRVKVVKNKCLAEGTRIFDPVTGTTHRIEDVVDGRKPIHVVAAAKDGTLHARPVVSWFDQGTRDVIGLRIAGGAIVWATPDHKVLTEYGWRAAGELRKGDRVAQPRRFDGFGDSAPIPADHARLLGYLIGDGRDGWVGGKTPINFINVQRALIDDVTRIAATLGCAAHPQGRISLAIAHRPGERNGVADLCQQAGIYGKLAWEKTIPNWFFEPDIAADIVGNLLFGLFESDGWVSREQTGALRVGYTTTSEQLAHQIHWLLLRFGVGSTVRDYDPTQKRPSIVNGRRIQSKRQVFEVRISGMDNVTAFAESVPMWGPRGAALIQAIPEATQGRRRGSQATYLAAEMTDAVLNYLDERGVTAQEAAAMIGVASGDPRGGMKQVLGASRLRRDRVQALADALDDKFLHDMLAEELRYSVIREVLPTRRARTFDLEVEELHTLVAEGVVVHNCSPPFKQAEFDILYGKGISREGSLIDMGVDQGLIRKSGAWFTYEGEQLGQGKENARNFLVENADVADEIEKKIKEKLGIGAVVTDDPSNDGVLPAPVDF
YopH PTP inh: blocks Yersinia enterocolitica YopH tyrosine phosphatase; AID 898; inhibition, %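 (about 10 µM by stock and volumes)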; fluorescence Ex485/Em525; 0.16% of 140,000 active;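 active = inhibition of 50% or more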;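 also: controls were vehicle for no effect and minimum signal wells for full effect; inactives centre near -20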
Mtb H37Rv: M. tuberculosis H37Rv growth inhibitors, H37Rv strain (AID 1626); 0.95% of 220,000 active; one-dose inhibition, % at 10 µM; IC50 in µM for titrated hits; M. tuberculosis H37Rv growth inhibition; higher % means a stronger effect;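 active = confirmed in a dose series; inconclusive = inhibition above 80% but not taken into the dose series; inactive = below 80% or under 30% at every dose of the series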;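 also: bacteria incubated seven days before Alamar blue readout; 0% = bacteria only wells and 100% = bacteria with antibiotic wells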
Arbovirus inh repeat: recorded beside Arbovirus inh, whose call it bears; inhibition, %; measured here: 10K subset replicate screen; many hits read low in the repeat;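 first of two repeat runs on a subset; 0% = infected and 100% = uninfected wells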
Numbers without * were called inactive.

Start of the listing, in advance, 2 compounds:
What do the screens show for `CN(C)S(=O)(=O)c1cc(C(=O)O)c(NC2CCCCC2)cc1Cl`?
Arbovirus inh: 16.9; Mtb bLac sens: -5.3; RecA splice inh: -0.3; YopH PTP inh: -11.6; Mtb H37Rv: -6.5%

Results for N#Cc1nnn2c1nc(N)c1c(F)cccc12 ?
Mtb bLac sens: -14.2; RecA splice inh: -0.5

The list itself, previewed entries included:
What do the screens show for `CN(C)S(=O)(=O)c1cc(C(=O)O)c(NC2CCCCC2)cc1Cl`?
Arbovirus inh: 16.9; Mtb bLac sens: -5.3; RecA splice inh: -0.3; YopH PTP inh: -11.6; Mtb H37Rv: -6.5%

Results for N#Cc1nnn2c1nc(N)c1c(F)cccc12 ?
Mtb bLac sens: -14.2; RecA splice inh: -0.5

Results for O=C1OC(c2ccc3c(c2)OCO3)=N/C1=C\c1ccc(C(=O)O)cc1 ?
Mtb bLac sens: -2.3; RecA splice inh: 0.5

Results for CCOC(=O)N1CCN(C(=O)CSCc2ccc(Br)cc2)CC1 ?
Arbovirus inh: 7.4; Mtb bLac sens: -4.9; RecA splice inh: 0.1; Mtb H37Rv: -12.6%

How did CN(C)CCCN(C(=O)c1ccc(C(=O)c2ccccc2)cc1)c1nc2c(F)cccc2s1 do in these assays?
Mtb bLac sens: 3.9; RecA splice inh: 0.4

What do the screens show for `CC1(C)Nc2ccccc2N(CCC(=O)N2CCOCC2)C1=O`?
Arbovirus inh: 0.9; Mtb bLac sens: -0.7; RecA splice inh: -3.7; YopH PTP inh: -38.4; Mtb H37Rv: -9.6%; Arbovirus inh repeat: 0.7

Results for O=C(Nc1nnc(S(=O)(=O)N2CCOCC2)s1)c1ccccc1Cl ?
Mtb bLac sens: 2.5; RecA splice inh: -1.4

Results for Cc1cc(OCC(=O)N2CCN(c3ccccc3)CC2)c2c(C)c(C)c(=O)oc2c1 ?
Mtb bLac sens: 4.5; RecA splice inh: 0.1

Results for CCN(CC)S(=O)(=O)c1ccc(NC(=S)NC(=O)CC(C)C)cc1 ?
Arbovirus inh: -2.7; Mtb bLac sens: -2.4; RecA splice inh: 0.8; YopH PTP inh: 1.7; Mtb H37Rv: 37.5%

What do the screens show for `COC(=O)C1=CN(c2cc(C)cc(C)c2)C=C(C(=O)OC)C1c1cccc(F)c1`?
Mtb bLac sens: -13.6; RecA splice inh: -5.1

Results for COC(=O)c1c(-c2ccc(OC)cc2)oc2ccc(-c3ccc(OC)nc3)cc12 ?
Mtb bLac sens: -0.3; RecA splice inh: -4.8

What do the screens show for `c1cncc(CNc2cccc(-c3nc4ccccc4[nH]3)c2)c1`?
Arbovirus inh: -4.8; Mtb bLac sens: -1.5; RecA splice inh: 2.0; YopH PTP inh: -23.6; Mtb H37Rv: 5.0%

How did Cc1ccccc1-n1c(SCC(=O)N2CCCCC2)nc(O)cc1=O do in these assays?
Mtb bLac sens: -1.4; RecA splice inh: -4.0

Results for CC(=O)Nc1ccc(Oc2ccc([N+](=O)[O-])cc2Cl)cc1 ?
Arbovirus inh: -3.7; Mtb bLac sens: -4.5; RecA splice inh: -2.8; Mtb H37Rv: -2.2%

How did CCOC(=O)c1cn(Cc2cccc(C)c2)nn1 do in these assays?
Arbovirus inh: -7.2; Mtb bLac sens: -5.1; RecA splice inh: -2.4; YopH PTP inh: -28.1; Mtb H37Rv: 9.5%

Results for Cc1snc(SCc2ccc(Cl)cc2)c1C#N ?
Mtb bLac sens: 3.2; RecA splice inh: 5.5

Results for COc1ccc(NS(=O)(=O)c2cccc(NC(=O)COc3ccc(OC)cc3)c2)cc1 ?
Mtb bLac sens: -8.8; RecA splice inh: 6.8; Mtb H37Rv: 11.2%

What do the screens show for `CCNC(=S)NNC(=O)C1CCN(Cc2ccccc2)CC1`?
Arbovirus inh: 0.2; Mtb bLac sens: 6.6; RecA splice inh: -2.9; Mtb H37Rv: -3.4%

What do the screens show for `Cc1ccc(C)c2nc3sc(C(=O)N4CCOCC4)c(N)c3cc12`?
Arbovirus inh: -13.0; Mtb bLac sens: -0.3; RecA splice inh: -6.4; Mtb H37Rv: -7.3%

Results for CC(C)CC(C(=O)NCC1CCCO1)N(C(=O)Cn1nnc(-c2ccc(F)cc2)n1)c1cccc(C(F)(F)F)c1 (stereo unspecified) ?
Arbovirus inh: 7.7; Mtb bLac sens: -3.7; RecA splice inh: -2.1; YopH PTP inh: -25.7; Mtb H37Rv: -0.9%

Results for O=C1NC(=O)/C(=C\c2ccc(Oc3ccc([N+](=O)[O-])cn3)cc2)S1 ?
Arbovirus inh: 32.9*; Mtb bLac sens: -0.7; RecA splice inh: 4.5; YopH PTP inh: -20.6; Mtb H37Rv: 2.9%

What do the screens show for `COc1ccc(-c2cc3c(=O)n(CC(=O)Nc4ccc(Cl)cc4)nc(C)n3n2)cc1`?
Mtb bLac sens: -11.6; RecA splice inh: -5.0

What do the screens show for `COC(=O)c1ccc(C(=O)OC)c(NC(=O)CSCc2ccc(Br)cc2)c1`?
Arbovirus inh: 2.7; Mtb bLac sens: 12.2; YopH PTP inh: -26.0; Mtb H37Rv: 3.2%

What do the screens show for `O=C(Nc1ccc(Cl)c(Cl)c1)N1CCOCC1`?
Mtb bLac sens: -2.3; RecA splice inh: 1.2

What do the screens show for `COc1ccc(S(=O)(=O)NC2CCCCCC2)c(OC)c1`?
Mtb bLac sens: -7.7; RecA splice inh: 0.5

What do the screens show for `COc1ccc(NC(=S)N2CCN(c3ccccn3)CC2)cc1OC`?
Arbovirus inh: 0.1; Mtb bLac sens: 0.6; RecA splice inh: -0.1; YopH PTP inh: -17.7; Mtb H37Rv: inconclusive

Results for O=C(NCCCN1CCOCC1)c1ccc(Cl)cc1[N+](=O)[O-] ?
Arbovirus inh: -2.9; Mtb bLac sens: -3.0; RecA splice inh: -2.8; Mtb H37Rv: -0.7%

What do the screens show for `O=C(OCc1ccccc1Cl)c1cccnc1Cl`?
Arbovirus inh: -11.8; Mtb bLac sens: 17.4; RecA splice inh: 0.1; YopH PTP inh: -15.6; Mtb H37Rv: 1.2%

What do the screens show for `COc1cc(CN(C)Cc2nc3cc(C(F)(F)F)ccc3c(=O)[nH]2)ccc1OC(F)F`?
Arbovirus inh: 8.5; Mtb bLac sens: -2.1; RecA splice inh: -1.4; Mtb H37Rv: 13.9%

What do the screens show for `Cc1cc(N)ccc1NC(=O)CN1CCCC1`?
Mtb bLac sens: -12.3; RecA splice inh: -4.5

What do the screens show for `CCCc1ncc(C(O)c2cccc(OC)c2)n1C` (stereo unspecified)?
Mtb bLac sens: -5.7; RecA splice inh: -0.8; Mtb H37Rv: -5.9%

Results for COC(=O)c1ccc(CSc2ncnc3c2nnn3-c2ccc(F)cc2)o1 ?
Arbovirus inh: 8.1; Mtb bLac sens: 96.0; RecA splice inh: 10.9; YopH PTP inh: -11.0; Mtb H37Rv: -9.6%

What do the screens show for `COc1ccc(CN2CCN(S(=O)(=O)c3ccc(F)cc3)CC2)cc1OC`?
Arbovirus inh: 5.1; Mtb bLac sens: -5.7; RecA splice inh: 1.3; YopH PTP inh: -39.0; Mtb H37Rv: -6.7%

What do the screens show for `Cc1c(NC(=O)/C(C#N)=C/c2ccc(-c3ccccc3Cl)o2)c(=O)n(-c2ccccc2)n1C`?
Arbovirus inh: -1.5; Mtb bLac sens: 0.6; RecA splice inh: 0.0; YopH PTP inh: -31.5

Results for O=c1[nH]ncc(N2CCN(C(c3ccccc3)c3ccccc3)CC2)c1Cl ?
Arbovirus inh: -25.9; Mtb bLac sens: 0.1; RecA splice inh: 9.4; YopH PTP inh: -18.7; Mtb H37Rv: -3.3%

What do the screens show for `O=C(CCC1CCCN(C(=O)CCCc2ccccc2)C1)N1CCN(c2ccccn2)CC1` (stereo unspecified)?
Mtb bLac sens: -3.3; RecA splice inh: 1.2; Mtb H37Rv: -2.4%

How did CC(=O)Nc1cccc(/C(C)=N/NC(N)=S)c1 do in these assays?
Arbovirus inh: 11.3; RecA splice inh: 0.6; Mtb H37Rv: 9.9%

What do the screens show for `COc1ccc(S(=O)(=O)NCc2c(-c3ccccc3)noc2C)c(OC)c1`?
Mtb bLac sens: -10.7; RecA splice inh: -0.2; Mtb H37Rv: 9.2%

How did CCOC(=O)C1C(=O)CC(C)(O)C(C(=O)OCC)C1c1ccc(Br)o1 (stereo unspecified) do in these assays?
Arbovirus inh: -1.1; Mtb bLac sens: 48.9; RecA splice inh: -2.2; YopH PTP inh: -50.5; Mtb H37Rv: -20.9%

Results for Cc1ccc(CN2CCCOCCS2(=O)=O)cc1 ?
Mtb bLac sens: -2.0; RecA splice inh: -0.7

How did O=C(c1cccs1)N1CCN(S(=O)(=O)N2CCOCC2)CC1 do in these assays?
Arbovirus inh: 4.6; Mtb bLac sens: -6.6; RecA splice inh: -0.1; YopH PTP inh: -28.7; Mtb H37Rv: -6.1%

How did O=C(c1ccc(OC2CCN(Cc3ccccc3OC(F)F)CC2)cc1)N1CCCC1 do in these assays?
Mtb bLac sens: 2.0; RecA splice inh: 1.5

How did O=C(Cn1cnc2c(cnn2-c2ccc(F)cc2)c1=O)NCc1ccco1 do in these assays?
Arbovirus inh: -6.5; Mtb bLac sens: -6.0; RecA splice inh: -1.5; YopH PTP inh: -41.4; Mtb H37Rv: -1.2%

How did C/C(CC(=O)NCC(C)C)=N\NC(=O)COc1cc(C)c(Br)cc1Br do in these assays?
Arbovirus inh: -19.1; Mtb bLac sens: 3.9; RecA splice inh: 1.8; YopH PTP inh: -15.8; Mtb H37Rv: 1.3%

What do the screens show for `Cc1ccc(-c2csc(NC(=O)c3ccno3)n2)cc1`?
Arbovirus inh: 9.7; Mtb bLac sens: 2.7; RecA splice inh: 4.4; YopH PTP inh: 1.8; Mtb H37Rv: 0.2%

How did Cn1cc(SCC(=O)NCc2ccc3c(c2)OCO3)c2ccccc21 do in these assays?
Arbovirus inh: -11.2; Mtb bLac sens: 1.0; RecA splice inh: 2.6; YopH PTP inh: -20.5; Mtb H37Rv: 5.2%; Arbovirus inh repeat: -3.7

What do the screens show for `Cc1sc(NC(=O)C2CCCCC2C(=O)O)c(C(N)=O)c1-c1ccc(C(C)C)cc1` (stereo unspecified)?
Arbovirus inh: 11.2; Mtb bLac sens: 1.2; RecA splice inh: 3.7; YopH PTP inh: -13.0; Mtb H37Rv: -9.5%

What do the screens show for `COc1ccc(-c2c(NC(=O)c3ccco3)n(-c3ccccc3)nc(C)c2=O)cc1`?
Mtb bLac sens: -1.1; RecA splice inh: -1.5; Mtb H37Rv: -7.7%

Results for Cc1nc(Oc2ccc(S(=O)(=O)N3CCOCC3)cc2Cl)c2c3c(sc2n1)CCCC3 ?
Arbovirus inh: -4.8; Mtb bLac sens: 97.2; RecA splice inh: 2.1; YopH PTP inh: -19.2; Mtb H37Rv: 19.4%

How did CCCCCCn1c(CN2CCN(C(=O)c3ccco3)CC2)nc2c1c(=O)n(C)c(=O)n2C do in these assays?
Arbovirus inh: 3.1; Mtb bLac sens: 5.1; RecA splice inh: 2.1; YopH PTP inh: -29.8; Mtb H37Rv: 0.1%

How did O=C(Cc1ccccc1)NNC(=O)Nc1ccc(Cl)c(Cl)c1 do in these assays?
Arbovirus inh: -9.7; Mtb bLac sens: 2.1; RecA splice inh: 1.1; YopH PTP inh: -28.4; Mtb H37Rv: 3.8%

How did Cc1nnc(SCC(N)=O)n1CC1CCCO1 (stereo unspecified) do in these assays?
Arbovirus inh: -0.9; Mtb bLac sens: 0.9; RecA splice inh: 1.1; YopH PTP inh: -39.8; Mtb H37Rv: -11.5%

What do the screens show for `CC(=O)c1ccc(S(=O)(=O)NCCC(=O)OCC(=O)NCCc2ccccc2)cc1`?
Mtb bLac sens: -4.2; RecA splice inh: -0.7

How did Cc1ccc(NS(=O)(=O)c2cc(NC(=O)C(C)Oc3ccccc3)ccc2C)c(C)c1 (stereo unspecified) do in these assays?
Arbovirus inh: -9.4; Mtb bLac sens: -2.9; RecA splice inh: 8.1; YopH PTP inh: -30.5; Mtb H37Rv: 8.5%

What do the screens show for `O=C([C@@H]1CC=C[C@@H]2CCN(C3CC3)C(=O)[C@@H]21)N1CCN(c2ccccc2)CC1`?
Mtb bLac sens: -4.7; RecA splice inh: -4.0; Mtb H37Rv: -6.8%

What do the screens show for `Cc1cc(Cl)ccc1NC(=O)CN1CCCC1`?
Mtb bLac sens: 0.2; RecA splice inh: 0.1

How did O=C(CCCN1C(=O)c2ccccc2C1=O)Nc1ccccn1 do in these assays?
Arbovirus inh: 3.0; Mtb bLac sens: -7.6; RecA splice inh: -1.3; YopH PTP inh: -3.2; Mtb H37Rv: -0.7%

What do the screens show for `COc1ccc(-c2cn3cc(C)ccc3n2)cc1Br`?
Arbovirus inh: -8.3; Mtb bLac sens: 6.5; RecA splice inh: -1.7; YopH PTP inh: -25.0; Mtb H37Rv: 16.1%

An excerpt. The share of hits here may be higher or lower than overall.
